Screens as filed in PubChem.
Mtb growth: Mycobacterium tuberculosis H37Rv growth inhibition, putative kinase inhibitor library, confirmatory dose response (AID 2842); M. tuberculosis H37Rv growth inhibition; higher % means a stronger effect; some inactives read as strong as hits; inhibition, % at 10 µg/mL; hits with a dose series show IC90 in µg/mL; actives 5.2% (n = 24,000);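 active = confirmed in a dose series; inconclusive = mostly over 85% at the one dose but not retested; inactive = below 85% or not confirmed; about a fifth of its hits are not listed in these tables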;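 also: bacteria incubated one week before Alamar blue readout; 0% = bacteria only wells and 100% = bacteria with high antibiotic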
Active calls of the source: *; ? = inconclusive. Only part of the results is shown (hit frequency here may not be typical).

SMILES | Mtb growth
O=C(CSc1ccc2nnc(-c3ccc(Cl)cc3)n2n1)N1CCCC1 | -6.0%
CN(C)CCNC(=O)C(=O)Nc1cc2c3c(c1)CCN3C(=O)CC2 | -11.4%
Cc1ccc(C)c2[nH]c(=O)c(CCNC(=O)C(C)(C)C)cc12 | 14.5%
COc1ccc(OC)c(Nc2nc(NCCN(C)C)nc3c2cnn3-c2ccccc2)c1 | 7.29µg/mL*
COc1ccc(C2NC(=O)NC(C)=C2C(=O)Nc2ccccc2Cl)cc1 (stereo unspecified) | 0.9%
COCCn1ccc2c(OCC(=O)NCCc3ccc(OC)c(OC)c3)cccc2c1=O | 2.9%
Cc1ccccc1C(=O)Nc1ccc2oc(=O)ccc2c1 | 1.0%
O=C(Nc1nc(-c2ccc3c(c2)OCCO3)cs1)c1ccccc1Cl | 60.4%

2 records drawn at random from those above, as already listed:
SMILES | Mtb growth
COCCn1ccc2c(OCC(=O)NCCc3ccc(OC)c(OC)c3)cccc2c1=O | 2.9%
COc1ccc(OC)c(Nc2nc(NCCN(C)C)nc3c2cnn3-c2ccccc2)c1 | 7.29µg/mL*

Later entries:
SMILES | Mtb growth
CCc1nnc(NC(=O)c2cccc(F)c2)s1 | 3.7%
COc1ccc(-n2c(=O)[nH]c3c(C(N)=O)nc(-c4cccnc4)nc32)c(OC)c1 | -16.4%
O=C1CC(NS(=O)(=O)c2ccc3ccccc3c2)CN1c1ccc2c(c1)OCCO2 (stereo unspecified) | 1.8%
O=C(Cc1ccccc1)Nc1nnc(C2CCCCC2)s1 | 12.3%
Cc1cc2ccccc2c(=O)n1CC(=O)NCC1COc2ccccc2O1 (stereo unspecified) | -12.8%
CCOc1ccc(-c2nnc3c4cc5c(cc4n(Cc4ccccc4F)cc2-3)OCO5)cc1 | 10.0%
CCCc1nc(SCC(=O)Nc2cccc(OC)c2)c2c(=O)n(C)c(=O)n(C)c2n1 | -14.4%
COc1ccccc1C(=O)NCC(=O)NNc1ncnc(N)c1[N+](=O)[O-] | 4.6%
O=C(/C=C1\SC(=O)NC1=O)Nc1ncc(Cc2ccccc2F)s1 | -6.5%
Cc1ccc2cc(CCNC(=O)COc3ccccc3)c(=O)[nH]c2c1C | -3.5%
COc1ccc(CNC(=O)NC2CC(=O)N(c3ccc(Cl)cc3)C2)cc1 (stereo unspecified) | 11.8%
Cn1c(=O)[nH]c(=O)c2c1nc(N1CCN(CCO)CC1)n2CCSc1nnnn1-c1ccccc1 | 2.3%
O=C(CSc1ccc2nnc(-c3cccs3)n2n1)Nc1ccc2c(c1)OCO2 | 67.0%
COc1ccc(Cl)c2sc(NC(=O)c3ccc(C(C)=O)cc3)nc12 | -8.8%
COc1cccc(NC(=O)Cn2cnc3c(cnn3-c3ccccc3)c2=O)c1 | -5.8%
CN(C)c1nc2c(c(=O)n(C)c(=O)n2C)n1CCSc1nc2ccccc2s1 | 3.6%
COc1ccc(N2CCN(c3nc4c(c(=O)n(C)c(=O)n4C)n3CCSc3nc(C)cc(C)n3)CC2)cc1 | -4.4%
Cc1cccc(Cn2c(SCC(=O)OCc3ccccc3)nc3c2c(=O)n(C)c(=O)n3C)c1 | 12.0%
CC1Cc2nc(SCC(=O)Nc3cccc4ccccc34)n(C)c(=O)c2S1 (stereo unspecified) | -2.2%
CCc1ccc(NC(=O)CC2Nc3cc(C)c(C)cc3NC2=O)cc1 (stereo unspecified) | 29.9%
O=C(Nc1c(C(=O)Nc2cccc(F)c2)oc2ccccc12)c1ccccc1C(F)(F)F | 2.4%
CC1(C)COc2ccc(NC(=O)COc3ccccc3F)cc2NC1=O | 16.2%
Cc1nc2ccccn2c1-c1csc(Nc2ncccn2)n1 | -10.2%
O=C(c1ccco1)N1CCN=C1SCc1cccc(Cl)c1 | 1.8%

Shown with each value named: 3 of the compounds above.
> CN(C)c1nc2c(c(=O)n(C)c(=O)n2C)n1CCSc1nc2ccccc2s1
  Mtb growth = 3.6%

> O=C(c1ccco1)N1CCN=C1SCc1cccc(Cl)c1
  Mtb growth = 1.8%

> Cc1ccccc1C(=O)Nc1ccc2oc(=O)ccc2c1
  Mtb growth = 1.0%

(listing goes on)
SMILES | Mtb growth
COc1ccc(NC(=O)COc2cccc3c2CCN(Cc2cccnc2)C3=O)cc1 | -6.4%
Cc1ccc2nc(NNC(=O)c3ccc(S(=O)(=O)N4CCc5ccccc5C4)cc3)sc2c1 | 10.7%
O=C(CSc1nc2c(c(=O)n1-c1ccc(F)cc1)SCC2)Nc1ccc(Cl)cc1 | 8.0%
CCc1ccccc1NC(=O)COC(=O)c1ccc2c(c1)C(=O)N(c1ccc(C)cc1C)C2=O | 15.5%
CCc1ccc(-c2nc(C(N)=O)c3[nH]c(=O)n(-c4ccc5c(c4)OCO5)c3n2)cc1 | -8.1%
CCOC(=O)COc1ccc2ccc(=O)oc2c1 | 79.2%
O=C(Cn1cnc2c(cnn2-c2ccc(F)cc2)c1=O)Nc1ccc([N+](=O)[O-])cc1 | -11.4%
CCOc1ccc(C(=O)NCCn2cc(SCC(=O)NCC3CCCO3)c3ccccc32)cc1 (stereo unspecified) | 11.8%
C/C=C/C(=O)Nc1c(C(=O)Nc2ccc3c(c2)OCCO3)oc2ccccc12 | 5.4%
CC1CCCCN1S(=O)(=O)c1ccc(C(=O)Nc2sc3c(c2C#N)CCCCC3)cc1 (stereo unspecified) | -1.3%
Cc1cccc(Oc2ncnc(N)c2[N+](=O)[O-])c1 | 15.4%
CCOC(=O)CSc1ncnc2nc[nH]c12 | -6.2%
CCCn1c(SC(C)CC)nc2c1c(=O)[nH]c(=O)n2C (stereo unspecified) | 15.1%
CC1CN(C(=O)Cn2cnc3c(cnn3-c3cccc(Cl)c3)c2=O)CC(C)O1 (stereo unspecified) | -6.0%
O=C(CSc1ccc2nnc(-c3ccc(Cl)cc3)n2n1)N1CCCCC1 | -10.8%
CN(Cc1ccccc1)c1ncnc2nc[nH]c12 | 2.8%
O=C(Nc1nc2c(cc3c4c(cccc42)CC3)s1)c1ccc(N2C(=O)CCC2=O)cc1 | 7.4%
C=CCn1c(=NC(=O)c2cccc(N3C(=O)CCC3=O)c2)sc2cc3c(cc21)OCCO3 | 2.1%
COc1ccc(C(=O)c2cn(Cc3cccc(F)c3)c3ccccc3c2=O)cc1OC | 8.5%
CCOC(=O)c1c(-c2ccccc2)csc1NC1SC(=O)N(c2ccccc2)C1=O (stereo unspecified) | 8.4%
Cc1nc(N)sc1N=Nc1cc(C(=O)O)cc(C(=O)O)c1 | -9.1%
Cc1ccc(Nc2nc(NCCN3CCOCC3)nc3nccnc23)cc1C | 6.8%
O=C(Nc1cccc2c1C(=O)NC2=O)c1ccc(-c2nc3ccccc3s2)s1 | 3.6%
Cc1cccn2c(=O)c3cc(C(=O)NCCc4ccccc4)c(=N)n(C4CCCC4)c3nc12 | 22.6%
O=[N+]([O-])c1ccccc1S(=O)(=O)Nc1ccc(-c2nc3cccnc3s2)cc1 | -0.4%
CCCc1cc(=O)[nH]c2nnc(SCC(=O)N(C)c3ccccc3)n12 | -4.3%
Cn1c(=O)[nH]c(=O)c2c1nc(NC1CCCCC1)n2CC(O)COc1ccccc1 (stereo unspecified) | -11.1%
COC(=O)Cn1c(=O)c2c(nc3n(-c4ccc(C(F)(F)F)cc4)c(C)c(C)n23)n(C)c1=O | -5.7%
Cc1ccc(-n2c(SCC(=O)Nc3cccc(C(F)(F)F)c3)nc3c(c2=O)SCC3)cc1 | 10.3%
CC(=O)CSc1nc2c(c(=O)[nH]c(=O)n2C)n1Cc1cccc(C)c1 | 11.3%
COc1ccc(OC)c(-n2c(CNC(=O)c3ccc(C)c([N+](=O)[O-])c3)nnc2SCC(=O)Nc2nnc(C)s2)c1 | -5.8%
Cc1c(C)n2c3c(=O)n(CC(=O)c4ccc(Cl)cc4)c(=O)n(C)c3nc2n1C | -3.7%
CC1CCCN(S(=O)(=O)c2ccc(C(=O)Nc3nc4c(ccc5ccccc54)s3)cc2)C1 (stereo unspecified) | -2.2%
CCC(=O)Nc1nnc(SCc2cc(=O)c(OC(=O)c3cccc([N+](=O)[O-])c3)co2)s1 | -3.3%
CCCCN1C(=O)c2cccc3c(NC(=O)c4ccc(C#N)cc4)ccc1c23 | 8.1%
C=CCN(CC=C)S(=O)(=O)c1ccc(C(=O)Nc2nnc(-c3cc(Cl)ccc3Cl)o2)cc1 | 12.8µg/mL*
Clc1cccc(-n2ncc3c(Nc4ccc(Br)cc4)ncnc32)c1 | 7.3%
CC1=C(C(=O)Nc2ccccc2F)C(c2ccc(C)cc2)NC(=O)N1 (stereo unspecified) | 1.3%
Cc1ccc(-c2nnc(NC(=O)/C=C/c3ccc([N+](=O)[O-])cc3)o2)c(C)c1 | 42.2%
Cc1cc(C)cc(NC(=O)CSc2ccnc3c2c(=O)n(C)c(=O)n3C)c1 | 10.0%
O=c1[nH]ncc(N2CCN(Cc3ccc4c(c3)OCO4)CC2)c1Cl | -7.2%
Cc1cc(C)c(C(=O)Nc2sc3c(c2C#N)CCCC3)c(C)c1 | -17.9%
Cc1ccccc1-c1nnc(NC(=O)C(C)C)s1 | 8.7%
CCN1CCN(CC(=O)Nc2ccc3c(c2)OCCO3)C(=O)C1=O | 2.7%
CCOc1ccc(C(=O)Nc2c(N)nc(SCc3ccc(C)cc3)[nH]c2=O)cc1 | -1.1%
CCOC(=O)CCC(=O)Nc1scc2c(C(=O)OCC)nn(-c3ccc(C(F)(F)F)cc3)c(=O)c12 | 7.7%
CN(C1CCCCC1)S(=O)(=O)c1ccc(C(=O)Nc2nc3c(s2)CSc2ccccc2-3)cc1 | -4.2%
Cn1ncc2c(NNC(=O)c3ccc(Cl)c(Cl)c3)ncnc21 | ?
COc1ccc(S(=O)(=O)NC2CC(=O)N(c3ccc4c(c3)OCCO4)C2)cc1C (stereo unspecified) | -2.5%
CCOc1cccc2c1OC(c1cccnc1)N1N=C(c3cccs3)CC21 (stereo unspecified) | 19.5%
N#C/C(=C\c1ccc(-c2ccccc2[N+](=O)[O-])o1)C(=O)NCc1ccco1 | 8.4%
O=C(c1cc([N+](=O)[O-])cc([N+](=O)[O-])c1)N1CCN(c2ccc(N3CCOCC3)nn2)CC1 | -0.9%
COc1ccc(C(=O)c2cn(CC(=O)Nc3cccc(OC)c3)c3cc4c(cc3c2=O)OCO4)cc1 | -0.3%
Nc1ncnc(Nc2ccc(F)cc2)c1[N+](=O)[O-] | 4.4%
CCS(=O)(=O)c1ccccc1C(=O)Nc1sc2c(c1C(N)=O)CCCC2 | 15.0%
Cc1cc(NC(=O)CSc2nnc3ccc(-c4cccnc4)nn23)no1 | 3.8%

(continued)
SMILES | Mtb growth
Cc1ccc(C(c2sc3ncnn3c2O)N2CCN(CCO)CC2)cc1 (stereo unspecified) | -7.4%
COc1cccc(C(=O)Nc2c3c(nn2-c2ccc(F)cc2)CS(=O)C3)c1 (stereo unspecified) | 5.8%
COc1ccc(N2CCN(S(=O)(=O)c3c[nH]c(=O)[nH]c3=O)CC2)cc1 | -16.4%
O=C(Nc1nc2c(Cl)cccc2s1)c1cc(Cl)ccc1Cl | -1.8%
O=C(Nc1nnc(-c2ccccc2Cl)s1)c1ccc(S(=O)(=O)N2CCCC2)cc1 | 2.3%
COc1ccccc1NC(=O)Cn1c(=O)n(Cc2ccc3c(c2)OCO3)c(=O)c2cccnc21 | -4.3%
COc1cc(C(=O)Nc2nnc(C)s2)cc(OC)c1OC | -4.7%
COc1ccc(N2C(=O)C3N=NN(CC(=O)Nc4ccc(C)cc4C)C3C2=O)cc1Cl (stereo unspecified) | -20.4%
Cc1ccc2cc(CCNC(=O)c3ccccc3I)c(=O)[nH]c2c1C | -2.4%
Cc1oc(-c2ccc(F)cc2)cc1-c1nn2c(-c3ccccc3)nnc2s1 | 11.9%
CCC(=O)NCCSc1ncc(-c2ccccc2)[nH]1 | -6.7%
O=C(N/N=C/c1ccc(-c2ccc([N+](=O)[O-])cc2)o1)c1ccccc1 | 9.6%
CCOCCSc1nc2c(c(=O)[nH]c(=O)n2C)n1CCCc1ccccc1 | 9.4%
COc1ccc(OC)c2[nH]c(=O)c(CCNC(=O)c3ccc(F)cc3)cc12 | -4.2%
COc1ccc(-n2c(O)c(C3=c4ccccc4=NC3=O)sc2=S)c(OC)c1 | -6.7%
NS(=O)(=O)c1ccc(C(=O)Nc2cccc(-c3ccc4nncn4n3)c2)cc1 | 2.8%
CN1CCN(C(CNC(=O)c2ccccc2)c2ccc(F)cc2)CC1 (stereo unspecified) | -13.5%
O=C(Nc1c(C(=O)Nc2ccccc2)oc2ccccc12)c1ccc(S(=O)(=O)N2CCOCC2)cc1 | -3.4%
CCOC(=O)c1nn(-c2ccc(C)cc2)c(=O)c2c(NC(=O)c3ccc(Br)o3)scc12 | -5.5%
C=CCNc1nc2c(c(=O)n(C)c(=O)n2C)n1CC(O)COc1ccccc1C (stereo unspecified) | 6.6%
Cc1c(C)n2c(SCC(=O)NCCc3ccccc3)nnc2[nH]c1=O | 5.0%
CCOC(=O)CNC(=O)CSc1nnc2[nH]c(=O)cc(-c3ccccc3)n12 | -18.4%
O=C(Nc1nnc(-c2ccc(Br)cc2)o1)c1ccc2c(c1)OCCO2 | 84.5%
CCc1nc2sc(C(c3ccc(F)c(F)c3)N3CCN(C(C)=O)CC3)c(O)n2n1 (stereo unspecified) | 78.8%
COc1ccc(OC)c(NC(=O)c2oc3ccccc3c2NC(=O)CC(C)(C)C)c1 | -1.1%
CC1CCN(S(=O)(=O)c2ccc(C(=O)N(C)C3CCS(=O)(=O)C3)cc2)CC1 (stereo unspecified) | -6.2%
